Bioassay records deposited in PubChem by several laboratories.
WNV protease inh = inhibitors of West Nile virus NS2B-NS3 protease; WNV NS2B-NS3 protease, fluorogenic substrate Ex360/Em465; active compounds read low; z-score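 (tested at a level between 10 and 100 µM)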; P06935; 65,000 compounds, 0.18% hits;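 active = z-score at -3 or under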;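 note: score is relative to mean and spread of the compound wells of a plate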
Target sequence (P06935 1371-1501 limits assumed): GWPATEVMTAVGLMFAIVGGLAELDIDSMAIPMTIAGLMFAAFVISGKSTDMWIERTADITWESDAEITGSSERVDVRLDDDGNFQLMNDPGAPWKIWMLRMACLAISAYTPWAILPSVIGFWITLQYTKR
Target sequence (P06935 1502-1679 limits assumed): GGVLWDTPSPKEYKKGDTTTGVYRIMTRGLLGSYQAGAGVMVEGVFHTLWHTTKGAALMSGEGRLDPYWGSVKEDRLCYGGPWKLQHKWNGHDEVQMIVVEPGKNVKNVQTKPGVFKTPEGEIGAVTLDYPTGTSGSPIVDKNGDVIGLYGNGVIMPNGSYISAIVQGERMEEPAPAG
MT1-MMP reporter = inhibitors of MT1-MMP promoter transcription, cell-based, luciferase reporter, luminescence (AID 618) | 87,000 compounds, 0.62% hits | calls from a first round at 10 µM; hits with a dose series show EC50 in µM | MT1-MMP promoter luciferase reporter cells, luminescence;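 active = over half of the reporter light lost at 10 µM or EC50 under 50 µM; inactive = the rest and hits that failed the dose series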;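 note: actives suppress MT1-MMP promoter-driven transcription so potencies describe inhibitors; HT1080 fibrosarcoma cells; overnight exposure; toxic or luciferase-blocking compounds were not removed from the actives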
Hsc70 = small molecules displacing fluorescent ligand from Hsc70 – biochemical, fluorescence polarization, primary screen (AID 568). 83,000 tested, under 10 active. Hsc70 fluorescence polarization, probe displacement; higher % means a stronger effect; strong numbers were not always called active. displacement, % at 20 µM; hits with a dose series show IC50 in µM;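 active = displacement above 50% without optical interference and an IC50 on retest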;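 note: ATPase domain with a fluorescein-tagged ATP probe; 0% = vehicle and 100% = excess ADP; read after one hour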
An asterisk follows results filed as active; i = inactive; / = no result given. This is a subset. The share of hits here may be higher or lower than overall.

SMILES | WNV protease inh | MT1-MMP reporter | Hsc70
Cc1nnc(Sc2cc(C(=O)NCc3ccco3)c3ccccc3n2)s1 | 1.2 | i | -2.3%
CCOc1nc(SC(C(C)=O)C(=O)Nc2ccccc2)nc(N(C)C)n1 (stereo unspecified) | -0.36 | i | -1.2%
Cc1nc2ncnn2c(Nc2ccc3c(c2)OCCO3)c1C | 0.23 | i | 4.7%
Cn1c(=O)c2c(n(C)c1=O)=NC1(CCCCC1)ON=2 | 0.13 | i | 2.2%
COC(=O)COc1ccc(S(=O)(=O)N2CCc3ccccc3C2)cc1 | / | i | -2.2%
CCCCN(C)C1=Nc2cccc3cccc1c23 | / | i | 4.5%
COc1nc(N(CC(N)=O)S(=O)(=O)c2ccccc2)nc(C)c1Cl | / | i | 6.3%
COC(=O)c1ccc(N2C(=O)CC(N3CCN(c4ccccc4)CC3)C2=O)cc1 (stereo unspecified) | / | i | 2.4%
Cc1onc(-c2ccccc2Cl)c1C(=O)Nc1ccccc1C(=O)NC(C)C | -0.81 | i | 12%
COc1ccc(C(CC(=O)O)NC(=O)OC(C)(C)C)cc1 (stereo unspecified) | 0.09 | i | -3.9%
CCCC(=O)Nc1ccc(C(=O)Nc2nnc(COC)s2)cc1 | 0.43 | i | -6.8%
COc1ccc2[nH]c(C(=O)O)c(NS(=O)(=O)c3ccc(OC)c(OC)c3)c2c1 | -0.01 | i | 1.2%

5 entries out of the list, ordered by formula weight, smallest number first:
SMILES | WNV protease inh | MT1-MMP reporter | Hsc70
CCCCN(C)C1=Nc2cccc3cccc1c23 | / | i | 4.5%
CCCC(=O)Nc1ccc(C(=O)Nc2nnc(COC)s2)cc1 | 0.43 | i | -6.8%
COC(=O)COc1ccc(S(=O)(=O)N2CCc3ccccc3C2)cc1 | / | i | -2.2%
CCOc1nc(SC(C(C)=O)C(=O)Nc2ccccc2)nc(N(C)C)n1 (stereo unspecified) | -0.36 | i | -1.2%
COc1ccc2[nH]c(C(=O)O)c(NS(=O)(=O)c3ccc(OC)c(OC)c3)c2c1 | -0.01 | i | 1.2%

The listing picks up with the five entries that preceded the break.
SMILES | WNV protease inh | MT1-MMP reporter | Hsc70
COC(=O)c1ccc(N2C(=O)CC(N3CCN(c4ccccc4)CC3)C2=O)cc1 (stereo unspecified) | / | i | 2.4%
Cc1onc(-c2ccccc2Cl)c1C(=O)Nc1ccccc1C(=O)NC(C)C | -0.81 | i | 12%
COc1ccc(C(CC(=O)O)NC(=O)OC(C)(C)C)cc1 (stereo unspecified) | 0.09 | i | -3.9%
CCCC(=O)Nc1ccc(C(=O)Nc2nnc(COC)s2)cc1 | 0.43 | i | -6.8%
COc1ccc2[nH]c(C(=O)O)c(NS(=O)(=O)c3ccc(OC)c(OC)c3)c2c1 | -0.01 | i | 1.2%
NNC(=O)C1=NOC(CNc2ncc(C(F)(F)F)cc2Cl)C1 (stereo unspecified) | / | i | 3.1%
COc1ccc(-c2cc(C#N)nc(N3CCNCC3)n2)cc1 | / | i | 2.6%
COc1ccc(-c2cnc(N)n2CC2CCCO2)cc1 (stereo unspecified) | -0.57 | i | 11%
O=C(O)C1CCCN1C(=O)c1cccs1 (stereo unspecified) | -0.56 | i | 3.9%
COc1ccc2cc3cc(C(=O)NCC4COc5ccccc5O4)oc3nc2c1 (stereo unspecified) | -0.0014 | i | -0.5%
COc1ccc(-n2c(=O)[nH]cc(C(=O)N3CCc4ccccc43)c2=O)cc1 | 0.39 | i | -0.3%
COc1ccccc1C(=O)Nc1nc2ccc(S(C)(=O)=O)cc2s1 | 0.73 | i | -2.6%
CCC(C)Nc1nc2c(c(=O)n(C)c(=O)n2C)n1Cc1cccc(C)c1 (stereo unspecified) | 0.62 | i | 4.1%
CCOC(=O)c1[nH]c2cc(OC)c(OC)cc2c1NC(=O)C(C)N1CCN(Cc2ccccc2)CC1 (stereo unspecified) | -0.86 | i | -1.4%
Cc1cc2ncn(C(=O)c3c(-c4c(Cl)cccc4Cl)noc3C)c2cc1C | 0.18 | i | 1.6%
COc1ccc(CCN/C=C2/CC(=O)NC2=O)cc1OC | 1.5 | i | 1.2%
CCCCCCCCCCS(=O)(=O)N/N=C/c1ccc([N+](=O)[O-])cc1 | / | i | 0.6%

The closing 6 records of the part above come first, to join the parts:
SMILES | WNV protease inh | MT1-MMP reporter | Hsc70
COc1ccccc1C(=O)Nc1nc2ccc(S(C)(=O)=O)cc2s1 | 0.73 | i | -2.6%
CCC(C)Nc1nc2c(c(=O)n(C)c(=O)n2C)n1Cc1cccc(C)c1 (stereo unspecified) | 0.62 | i | 4.1%
CCOC(=O)c1[nH]c2cc(OC)c(OC)cc2c1NC(=O)C(C)N1CCN(Cc2ccccc2)CC1 (stereo unspecified) | -0.86 | i | -1.4%
Cc1cc2ncn(C(=O)c3c(-c4c(Cl)cccc4Cl)noc3C)c2cc1C | 0.18 | i | 1.6%
COc1ccc(CCN/C=C2/CC(=O)NC2=O)cc1OC | 1.5 | i | 1.2%
CCCCCCCCCCS(=O)(=O)N/N=C/c1ccc([N+](=O)[O-])cc1 | / | i | 0.6%
CCOC(=O)N1CCC(N2Cc3cccc(C(=O)NCc4ccc(OC)cc4)c3C2=O)CC1 | -0.94 | i | 1.4%
CCOC(=O)C(=O)Nc1ccccc1C(N)=O | / | i | 2.2%
CCOC(=O)CNS(=O)(=O)c1ccc(C(=O)O)cc1 | 1.2 | i | -6.8%
COc1cc(NC(=O)N[C@H](C(=O)O)C(C)C)cc(OC)c1 | 1.1 | i | 1.0%
CCCCc1nc2ccccc2c(=O)n1NC(=O)c1c(O)c2cccc3c2n(c1=O)CCC3 | -0.34 | i | 4.2%
Cc1ccc(CC(=O)OCCNC(=O)c2cccnc2)cc1 | -0.46 | i | -3.5%
CCC(C)(C)C1CCc2c(sc(NC(=O)c3ccoc3C)c2C(N)=O)C1 (stereo unspecified) | / | i | -0.4%
Cc1csc(=O)n1CC(=O)OCc1cccc2ccccc12 | -0.39 | i | -3.0%
CCSc1nc(N2CCCCC2)c2c(c1C#N)CCCC2 | / | i | 0.3%
CC(C)(C)c1cc(OC(=O)c2ccncc2)ccc1O | / | i | -0.8%
Cc1ccc(NC(=O)C2CCCN(S(=O)(=O)c3c(C)noc3C)C2)cc1F (stereo unspecified) | 0.02 | i | -4.9%
CCN1C(=O)c2cccc3c(NC(=O)c4ccc5c(c4)OCCO5)ccc1c23 | 0.09 | i | -122%
Cc1ccc(S(=O)(=O)N2CCN(S(C)(=O)=O)CC2)cc1 | / | i | 2.6%
COc1ccc(-c2noc(-c3cc(Cl)ccc3Cl)n2)cc1OC | -0.25 | i | 2.0%
COc1ccccc1Cn1cnc2cccnc21 | 0.26 | i | -4.6%
COC(=O)c1cccc(C(=O)Oc2cccc(Br)c2)n1 | -0.84 | i | 0.3%
CCCOc1ccc(N2CC(C(=O)Nc3ncccc3C)CC2=O)cc1 (stereo unspecified) | -0.38 | i | -5.8%
CSc1ncccc1C(=O)OCC(=O)N1CCOCC1 | -0.06 | i | 0.8%
COc1ccccc1CNC(=O)CC(C)C | / | i | 2.7%
O=C1c2[nH]nc(-c3ccccc3O)c2C(c2ccc(F)cc2)N1Cc1ccco1 (stereo unspecified) | 1.2 | i | -4.8%
COCCSc1nnc(-c2cnccn2)o1 | -1.2 | i | -0.1%
CCn1c(SCC(=O)N2CCCc3ccccc32)nc2cccnc21 | 1.7 | i | -6.1%
CCCc1nnc(NC(=O)CCC(=O)Nc2ccc(F)cc2)s1 | -0.02 | i | -2.1%
CC(=O)c1ccc(OC(=O)N(c2ccccc2)c2ccccc2)cc1 | / | i | -3.3%
CC1CCCC(NC(=O)CN2CCN(Cc3ccc(Cl)cc3)C2=O)C1C (stereo unspecified) | -0.88 | i | 1.0%
CCc1ccc2c(CC(=O)Nc3nnc(C4CC4)s3)coc2c1 | / | i | -5.9%
CC1=CC(C)(C)Nc2ccc(C)cc21 | 1.7 | i | 2.0%
c1ccc(-c2nnc(CSc3nncs3)o2)cc1 | -1.4 | i | -1.3%
Cc1nccn1CCCN1C(=O)OC2(CCCCC2)C1(C)O (stereo unspecified) | -0.47 | i | -1.2%
Cc1cccc(N(CC(=O)Nc2ccc(CC#N)cc2)S(C)(=O)=O)c1 | 0.54 | i | -2.7%
CCC(C)NS(=O)(=O)c1ccc(OCC(=O)Nc2ccc3c(c2)OCCO3)cc1 (stereo unspecified) | / | i | 3.1%
Cn1c(CN2CCCCC2)nc2cc(NC(=O)c3cccc(Br)c3)ccc21 | / | i | 0.6%
O=C(NC1CCCC1)C1CCC(=O)N1C1CCCC1 (stereo unspecified) | -0.23 | i | -0.1%
CCSc1nnc(NC(=O)c2cnccn2)s1 | -1.2 | i | -0.2%
CC1(C)CC2(CCO1)CNC(=O)O2 (stereo unspecified) | -0.54 | i | 4.9%
CCOC(=O)N1CCC(Nc2nc(OC)nc(OC)n2)CC1 | / | i | -3.2%
COc1cc(OC)c(C2N(c3ccc(Cl)cc3)C(=O)C3CCCN32)cc1OC (stereo unspecified) | 0.77 | i | -5.8%
O=C(/C=N/O)Nc1ccccc1 | 1.1 | i | -2.0%
COC(=O)C1CCN(C(c2ccc(OC)c(OC)c2)c2sc3nc(C)nn3c2O)CC1 (stereo unspecified) | 1.9 | i | 1.8%
CCCCC1CCC(C(=O)Nc2ccc(S(=O)(=O)Nc3nccs3)cc2)CC1 (stereo unspecified) | / | i | 1.2%
O=C(NCCN1CCCCCC1)C1CC(=O)N(CCc2ccccc2)C1 (stereo unspecified) | 0.05 | i | -2.9%
Cc1cc(C)nc(Nc2n[nH]c(Cc3ccccc3)n2)n1 | 2.8 | i | 4.2%
COCCNC(=O)CSc1nc2cc(OC)c(OC)cc2c(=O)n1CCC1=CCCCC1 | 0.11 | i | 6.7%
Cc1ccc(S(=O)(=O)N2CCC(C(=O)OCC(=O)N3CCc4ccccc43)CC2)cc1 | 1.9 | i | 1.1%
CC1(C)Cc2ccccc2-c2nc3ccccc3c(=O)n21 | 0.52 | i | 0.2%
O=C(CN1CCN(c2ccc(F)cc2)CC1)Nc1ccc(F)c(F)c1 | 0.9 | i | -6.4%
CC1(C)CC(=O)C=C(NC2CC(C)(C)NC(C)(C)C2)C1 | -0.79 | i | -1.4%
O=C(CC1C(=O)NCCN1C(=O)Nc1ccccc1)Nc1ccc2c(c1)OCO2 (stereo unspecified) | 0.05 | i | -4.6%
O=S(=O)(/N=C(/Nc1cc(N2CCOCC2)ncn1)c1ccccc1)c1ccccc1 | 1.2 | i | 0.3%
O=c1c2ccccc2nc(SCc2cccc(F)c2)n1Cc1ccco1 | 0.9 | i | 6.9%
O=C(O)c1c[nH]c2cc(C(F)(F)F)ccc2c1=O | / | i | -1.5%
Cc1cccc2cc(CN(CCN3CCCC3)C(=O)NC3CCCCC3)c(=O)[nH]c12 | -0.71 | i | -3.1%
Cc1nn(-c2ccc(Cl)cc2)c(N)c1C(O)(CSc1nccn1C)C(F)(F)F (stereo unspecified) | 0.4 | i | -0.7%
CC(C)Sc1nc2ccccc2n1CC(=O)NCc1ccc2c(c1)OCO2 | / | i | 0.8%
Cc1ccc(-c2nnc(CSc3nnc(COc4ccccc4)n3-c3ccccc3)o2)cc1 | -0.85 | i | -1.0%
CCN1CCN(CCCCOc2ccccc2F)CC1 | / | i | -2.6%
Cc1ncc(CSc2nc3ccccc3[nH]2)c(N)n1 | -1 | i | -3.3%
CC(NC(=O)Nc1ccc2c(c1)OCO2)C1CCCO1 (stereo unspecified) | 0.11 | i | 0.5%
CN(C)c1ccc(NC(=O)c2sc(SCC(=O)Nc3nccs3)nc2N)cc1 | 1.3 | i | -6.2%
C=CCn1c(COc2ccccc2F)nnc1SCC(=O)N1CC(=O)Nc2ccccc21 | 0.47 | i | -1.7%
Following part:
SMILES | WNV protease inh | MT1-MMP reporter | Hsc70
COc1ccc(-c2nn(-c3ccccc3)cc2C(=O)N2CCOCC2)cc1 | 0.3 | i | -5.4%
Cc1ccc(S(=O)(=O)C(C#N)c2nc3ccccc3nc2N2CCCC2)cc1 (stereo unspecified) | 1.8 | i | 53%
CSc1ncccc1C(=O)OCC(=O)Nc1cc(C(F)(F)F)ccc1N1CCOCC1 | 1.3 | i | -3.7%
O=C(Oc1cccc(NC(=O)c2ccco2)c1)c1cccc(S(=O)(=O)N2CCCCC2)c1 | / | i | 1.5%
O=C(c1cc2nc(-c3ccco3)cc(C(F)(F)F)n2n1)N1CCCc2ccccc21 | -0.93 | i | 3.1%
CN(C)C(CNC(=O)CSc1nnc(-c2ccco2)o1)c1ccccc1 (stereo unspecified) | 0.02 | i | 1.9%
CCCc1cc(C(=O)NCCc2ccc(OC)c(OC)c2)no1 | 0.97 | i | -0.3%
O=C(COC(=O)Cc1cn2ccsc2n1)Nc1nc2ccccc2s1 | 0.37 | i | 8.7%
